TRPV1 potentiator – enhances activation of the human vanilloid receptor TRPV1; 320,000 tested, 0.02% active; Q8NER1; potentiation, % at 8.33 µM; TRPV1-expressing cells, Fluo-8 calcium influx, capsaicin EC20 potentiation; host cell line not named in the record; control for the full effect not named in the record; active means potentiation above 80%; inconclusive means 30% to 80%; inactive means below 30%; also: 0% is about no effect
Target sequence (Q8NER1 whole entry, looked up): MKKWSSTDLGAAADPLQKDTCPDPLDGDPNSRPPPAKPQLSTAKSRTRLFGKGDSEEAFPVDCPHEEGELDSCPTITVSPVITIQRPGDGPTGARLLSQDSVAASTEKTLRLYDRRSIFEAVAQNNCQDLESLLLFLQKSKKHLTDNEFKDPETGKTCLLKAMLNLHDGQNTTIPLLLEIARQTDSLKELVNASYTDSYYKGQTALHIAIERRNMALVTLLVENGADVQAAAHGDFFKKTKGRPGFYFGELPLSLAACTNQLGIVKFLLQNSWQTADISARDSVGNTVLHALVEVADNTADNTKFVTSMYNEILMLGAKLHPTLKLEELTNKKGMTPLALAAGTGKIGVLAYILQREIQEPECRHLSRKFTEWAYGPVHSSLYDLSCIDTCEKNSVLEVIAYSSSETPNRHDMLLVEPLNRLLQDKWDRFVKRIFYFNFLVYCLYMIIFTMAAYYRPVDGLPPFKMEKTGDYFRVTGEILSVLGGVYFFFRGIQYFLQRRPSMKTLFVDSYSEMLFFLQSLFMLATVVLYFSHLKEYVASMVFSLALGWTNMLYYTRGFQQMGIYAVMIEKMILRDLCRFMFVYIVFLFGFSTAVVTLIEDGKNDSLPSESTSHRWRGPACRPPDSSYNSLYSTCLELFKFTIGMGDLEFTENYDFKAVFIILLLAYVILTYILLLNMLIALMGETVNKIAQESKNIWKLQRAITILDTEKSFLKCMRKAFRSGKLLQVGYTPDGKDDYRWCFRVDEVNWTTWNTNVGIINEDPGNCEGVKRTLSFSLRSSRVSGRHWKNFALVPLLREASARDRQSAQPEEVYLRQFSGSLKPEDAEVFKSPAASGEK
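TRPV1-expressing cells were cultured overnight at 35.5C and loaded with Fluo-8 calcium dye for 40 to 90 min at room temperature. After a 10 s baseline, compound was added and calcium influx was read kinetically for 3 min (ex 480/em 520 nm).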
gsp ag – gsp mutant agonism; gsp mutant cells, cAMP HTRF, 30 min; control for the full effect not named in the record; Potency, µM (doses to about 76.9 µM), for inactives: at the highest dose activation (cAMP increase), actives largely listed as activators; 340,000 tested, 0.13% active; AID 624287; active = well fitted activation curve with a large enough effect; inconclusive = small, poorly fitted or top-dose-only effect, or another doubt; inactive = no such curve, though single readings can be large or run the other way; cell line not stated here;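 also: phosphodiesterase inhibitor Ro 20-1724 added with compounds to block cAMP breakdown; potency is read from the fitted curve at half-maximal effect; nearly all actives have a fitted effect of over 60% in size; about a fifth of the inactives were tested at one dose only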
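Cells in DMEM/10% FBS with G418 were pretreated with compounds in DMSO plus […] (300 uM stock) for 30 min at 37C. cAMP was measured by HTRF (cAMP-d2 plus anti-cAMP antibody-K) after 30 min at room temperature.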
Menin MLL FP FL – displaces fluorescein MLL peptide from human menin | Fluorescence polarization, fluorescein-MLL peptide displacement from menin | FP activity change, % at 61.4 µM | 290,000 tested, under 10 active | AID 1766; inconclusive = falling polarisation curve, or a change in total fluorescence; inactive = total fluorescence flat and polarisation flat or rising; no compound was filed as active; the % refers to the polarisation; negative = inhibition;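 also: % of control where 0% means no effect; inhibitors lower the polarisation; unlabelled MLL peptide was the positive control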
Sfp PPTase inh – inhibitors of Bacillus subtilis Sfp phosphopantetheinyl transferase; Q9F4F7; Potency, µM, inactives show max response, negative = inhibition, hits mostly inhibitors; 310,000 tested, 3.5% active; Biochemical Sfp PPTase activity, qHTS; active = well fitted inhibition curve with a large enough effect; inconclusive = small, poorly fitted or top-dose-only effect, or another doubt; inactive = no such curve, though single readings can be large or run the other way;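 also: the enzyme is Sfp with the accession as filed and its product quenches rhodamine fluorescence; potency is read from the fitted curve at half-maximal effect; 0% = enzyme reaction without inhibitor and -100% = no enzyme wells; top concentration of the series not given in the record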
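Reaction rates are the 30-min fluorescence difference (ex 525, em 598 nm) in wells containing 15 nM Sfp, 5 uM rhodamine-CoA and 12.5 uM BHQ-2-YbbR at pH 7.6 with 10 mM MgCl2.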
gsp antagonist – antagonizes gsp, the McCune-Albright syndrome mutation. gsp-mutant cells, cAMP HTRF, 30 min; control for the full effect not named in the record. Potency, µM (titrated, usually from 76.9 µM), inactives show at the highest dose activity change, negative = inhibition, most hits filed as inhibitors. 340,000 tested, 0.4% active. AID 624288; active = falling curve of any shape with a large fitted effect; inconclusive = falling curve, mostly with a smaller effect; inactive = flat or rising curve; cell line not stated here;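 also: intracellular cAMP measured with PDE inhibitor Ro 20-1724 present during compound exposure; potency is read from the fitted curve at half-maximal effect; % is scaled to controls: 0 for no effect and ±100 for the full control effect; nearly all actives have a fitted effect of over 65% in size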
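HTRF cAMP measurement after 30 min RT detection following 30 min, 37C compound treatment alongside […] (added as 300 uM solution) in G418-selected cells seeded at 2000/well and grown 16–24 h.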
D2 potentiator – potentiates the human D2 dopamine receptor allosterically. DiscoveRx D2 beta-arrestin cells, luminescence, 90 min; 100% = 57 uM dopamine signal. P14416. AID 624464. 360,000 tested, 0.23% active. potentiation, % (concentration not given with the values); active = potentiation of 50% or more; inconclusive = 30% to 50%; inactive = 30% or less;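 also: compound concentration not given in the record; tested on top of an EC20 dose of dopamine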
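D2 cells co-treated with compound plus 50 nM dopamine (EC20) for 90 min at 37 deg C to detect potentiation. Beta-arrestin recruitment was read as enzyme-fragment luminescence after 1 h at ambient temperature. Full response was set by 57 uM dopamine.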
ClpP mod – qHTS Assay for Activators of ClpP; Potency, µM (doses to about 57.5 µM), inactives show top-dose activity change, negative = active; purified B. subtilis ClpP, FRET peptide cleavage, 20 min; ATP-dependent Clp protease proteolytic subunit (Bacillus subtilis (strain 168)), P80244; 340,000 tested, 1.9% active; active = well fitted falling curve with a large enough effect; inconclusive = small, poorly fitted or top-dose-only effect; inactive = no such curve, though single readings can be large or run the other way; also: potency is read from the fitted curve at half-maximal effect; the source files actives as falling curves though it sought activators and does not explain the sign; nearly all actives have a fitted effect of over 65% in size; many hits overshoot -100%
Target sequence (P80244 whole entry, looked up): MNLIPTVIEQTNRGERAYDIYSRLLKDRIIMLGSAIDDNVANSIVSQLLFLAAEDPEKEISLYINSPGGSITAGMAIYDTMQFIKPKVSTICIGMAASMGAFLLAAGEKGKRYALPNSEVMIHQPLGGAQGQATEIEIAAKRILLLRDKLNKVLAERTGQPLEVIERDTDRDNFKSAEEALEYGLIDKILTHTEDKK
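Buffer: 100 mM Tris/HCl pH8, 100 mM KCl, 0.05% low protease BSA, 2.5% glycerol, 0.01% Tween-20. ClpP 10 microg/mL final; 20 min RT; delta FRET normalized to ADEP and DMSO controls.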
* = called active by the depositor; ? = inconclusive; . = not tested or not shown; [ ] = remark or other dose.

Results follow in this order: gsp antagonist, TRPV1 potentiator, D2 potentiator, Menin MLL FP FL, ClpP mod, Sfp PPTase inh, gsp ag
O=C(COC(=O)c1ccc2ccccc2c1O)NCc1ccccc1
    5%, -1, -1, ., 4.9%, ., -25%
Cc1ccc(C2(C)NC(=O)N(CC(=O)N3CCN(S(=O)(=O)c4ccc(Cl)s4)CC3)C2=O)cc1 (stereo unspecified)
    -9%, -2, 9, ., -4.3%, ., -15%
CCOC(=O)c1csc(CCNC(=O)c2ccccc2)n1
    ., ., -5, ., 0.1%, ., 9%
CC(=O)Nc1ccc(NC(=O)c2ccc(S(=O)(=O)N(C)c3ccccc3)cc2)cc1
    -12%, -20, 4, ., 2.3%, ., -30%[inhibitor]
COc1cc(/C=N/Nc2nc(-c3ccc(S(=O)(=O)N(C)C)cc3)cs2)ccc1O
    32µM*, -9, 16, 4.2, -4.1%, 79µM*, -12%
Cc1ccccc1NC(=O)CN1C(=O)NC(C)(CCc2ccccc2)C1=O (stereo unspecified)
    -6%, ?, -10, 0.2, ., -4%, 3%[15.4 µM]
CCN1CCN(C(=O)CSc2nc(N)cc(N)n2)CC1
    10%, 5, -11, 1.5, 2.3%, -2%, -9%
CCc1nnc(SCC(=O)Nc2nnc(C)s2)n1CC1CCCO1 (stereo unspecified)
    -1%, 8, -14, 1.6, 2.7%, 12%, 12%
CSc1ccccc1NC(=O)CCc1ccccc1
    7%, 3, -4, 4.0, 1.5%, 19%, -3%
CCOC(=O)c1c(NC(=O)CN2CCCc3ccccc32)sc(C)c1C
    -25%, 5, 8, 8.8, -19%, 5%, -32%[inhibitor]
COCCN1C(=O)/C(=C/c2ccc(N3CCCC3)cc2)SC1=S
    -1%, -5, -9, ?, ., 45%[activator], 6%[15.4 µM]
COc1ccc(/C=N/NC2=NCCCCC2)cc1
    10%, ?, -10, -0.5, -0.6%, -3%, -22%
Cc1cc(NC(=S)N(Cc2ccc(Cl)cc2)Cc2ccc(C(=O)O)cc2)ccc1Cl
    ?, 3, -11, 0.8, -0.6%, -6%, -1%
Cn1c(=O)n(Cc2ccccc2)c(=O)c2c1nc1n2CCN1Cc1ccco1
    -4%, 2, -2, 4.4, -5.2%, 10%, 16%
COc1ccc(OC)c(C2=NS(=O)(=O)N(C)C(C(=O)NCc3ccco3)=C2)c1
    -20%, -16, -10, 8.9, 0.6%, 10%, 0%
COCCn1c(=S)[nH]c2ccccc21
    ., 13, -1, -1.1, ., -6%, -13%[15.4 µM]
CN1CCn2cnc(C(=O)NCC(=O)OC(C)(C)C)c2C1=O
    ., ., 4, ., 1.1%, ., -64%[inhibitor]
C/C(=C\c1ccccc1)C(=O)NCCc1ccccc1
    -3%, -11, -11, 3.2, ., 18%, -12%[15.4 µM]
CC(=O)N1CCc2cc(S(=O)(=O)NC(Cc3ccccc3)C(=O)NC3CCCCCC3)ccc21 (stereo unspecified)
    -10%, 0, -8, -0.5, -0.4%, 12%, 9%
CCOC(=O)c1cc(-c2ccc(F)cc2)n(CC(=O)NC(C)CC)c1C (stereo unspecified)
    -11%, 1, 1, 0.3, -0.3%, 14%, -10%

Arranged by the number under gsp ag (highest first): some entries from above.
canonical_smiles,D2 potentiator,Menin MLL FP FL,Sfp PPTase inh,gsp ag
CCc1nnc(SCC(=O)Nc2nnc(C)s2)n1CC1CCCO1 (stereo unspecified),-14,1.6,12%,12%
COc1ccc(OC)c(C2=NS(=O)(=O)N(C)C(C(=O)NCc3ccco3)=C2)c1,-10,8.9,10%,0%
CCOC(=O)c1cc(-c2ccc(F)cc2)n(CC(=O)NC(C)CC)c1C (stereo unspecified),1,0.3,14%,-10%

The results go on:
Results follow in this order: gsp antagonist, TRPV1 potentiator, D2 potentiator, Menin MLL FP FL, ClpP mod, Sfp PPTase inh, gsp ag
CC/C(=N\NC(=O)CCC(=O)NCc1ccccc1)c1ccc(O)cc1
    12%, -5, -5, -1.7, ., 10%, 13%[15.4 µM]
CCOc1ccc2oc(C(=O)NC(C)(C)CC)c(C)c2c1
    -3%, -14, -2, -5.9, -19%, 7%, 8%[15.4 µM]
CCCN(CCC)CCCOC(=O)c1ccc(Cl)cc1Cl
    -3%, 18, -35, 0.2, -0.4%, 5%, 16%
Cc1c(C(C)(C)C)sc(=NC(=O)c2ccccc2O)n1C
    7%, -12, 0, 2.0, ., 10%, ?
CCOc1ccc(-c2csc(NNC3=NCCCCC3)n2)cc1
    9%, 9, -14, 0.4, ., 10µM*, 13%[15.4 µM]
C=CCc1cccc(/C=N/NC(=O)c2ccc3nc[nH]c3c2)c1O
    -10%, -2, -13, ., 4.6%, 22%, -5%
O=C(COc1nncc2ccccc12)Nc1ccc(F)c(F)c1
    2%, -4, -8, -3.5, -0.9%, 10%, -26%[15.4 µM]
N#CCCC(C#N)(c1cccnc1)N1CCOCC1 (stereo unspecified)
    ., ., -13, ., -5.3%, ., 5%
CC1CN(C(=O)C2(C)CC2(Br)Br)CC(C)O1 (stereo unspecified)
    8%, 1, -4, 1.9, -3.5%, 3%, -39%[inhibitor]
COc1cc(N)c2ncsc2c1
    -4%, ., 11, ., -4.4%, ., -10%
CC1=C(C(=O)N2CCOCC2)CC(CC(=O)NCCN2CCOCC2)C(=O)N1Cc1ccc(F)cc1 (stereo unspecified)
    ., ., 9, ., -1.6%, ., -44%[inhibitor]
COc1ccc(-c2nc(-c3ccccc3)nc(N3CCN(C)CC3)c2C#N)cc1
    3%, ., -6, 2.3, -0.4%, 1%, 13%
COc1ccc(-n2ncc3c(=O)n(CC(=O)Nc4ccc5c(c4)OCCO5)cnc32)cc1
    0%, -3, -10, -5.8, ., -28%, 30%
CCCNS(=O)(=O)c1ccc(C(=O)NCC2CCCO2)cc1 (stereo unspecified)
    1%, 15, -6, 2.6, -2.4%, 7%, -74%[inhibitor]
O=C(Nc1ccccc1)C(Cl)C(=O)c1ccccc1 (stereo unspecified)
    13%, -16, -65, -1.8, 0.2%, 14µM*, 0%
COc1cccc(C2NC(=O)NC(C)=C2C(=O)Nc2ccc(C)cc2)c1OC (stereo unspecified)
    -2%, 17, -19, 0.5, 1.1%, -3%, -43%[inhibitor]
Cc1nnc(SCC(=O)Nc2ccc([N+](=O)[O-])cc2)n1C
    1%, 25, -18, 1.4, 0.8%, 19%, -2%
COc1ccccc1CNc1nc2ccccc2n1CCN1CCCCC1
    -6%, -13, 10, 2.3, 1.0%, -2%, -16%
COc1ccccc1-c1nnc(C2CCN(S(=O)(=O)c3cccc([N+](=O)[O-])c3)CC2)o1
    -14%, -9, -10, -3.6, -2.6%, -23%, ?
COc1cccc(NC(=O)C2CCN(C(=O)NC3CCCCC3)CC2)c1
    9%, -25, 1, -4.2, 1.9%, 7%, -6%[15.4 µM]

Marked active in Sfp PPTase inh, among the entries above:
| SMILES | D2 potentiator | Menin MLL FP FL | Sfp PPTase inh | gsp ag |
| --- | --- | --- | --- | --- |
| COc1cc(/C=N/Nc2nc(-c3ccc(S(=O)(=O)N(C)C)cc3)cs2)ccc1O | 16 | 4.2 | 79µM* | -12% |
| CCOc1ccc(-c2csc(NNC3=NCCCCC3)n2)cc1 | -14 | 0.4 | 10µM* | 13%[15.4 µM] |
| O=C(Nc1ccccc1)C(Cl)C(=O)c1ccccc1 (stereo unspecified) | -65 | -1.8 | 14µM* | 0% |

More results:
Results follow in this order: gsp antagonist, TRPV1 potentiator, D2 potentiator, Menin MLL FP FL, ClpP mod, Sfp PPTase inh, gsp ag
COc1ccccc1/C=N/NC(=O)C(=O)NCc1cccnc1
    6%, -1, -9, 0.0, ., 10%, 26%[15.4 µM]
O=C1c2cccc3cccc(c23)C(=O)N1CCN1CCN(C(=S)Nc2ccccc2)CC1
    -4%, -1, -6, 10, -29%, 22%, 0%
CC(=O)Oc1ccc(C23CC4CC(CC(C4)C2)C3)cc1C(=O)O
    ., 25, ., -6.9, ., 0%, .
CN(C(=O)C(C)(C)C)c1ccc(OCC(=O)N2CCc3ccccc3C2)cc1
    -11%, -2, -3, ., ., 20%, 9%
CC1(C)Oc2ccc3ccc(=O)oc3c2C(/C=N/O)=C1Cl
    10%, 10, 0, -0.9, ., 11%, -6%
CN(C)c1cccc(NC(=O)c2cccc3ccccc23)c1
    -19%, 11, -8, 2.1, ., -3%, 16%
Cc1cc(O)c(C2(C(F)(F)F)NCCNC2=O)cc1C (stereo unspecified)
    -1%, 19, -8, 2.2, 0.6%, 15%, -7%
COc1cc(OC)cc(C(=O)NNC(=O)CNC(=O)c2ccc(Br)o2)c1
    -11%, 4, -11, ., -5.2%, ., 3%
CCCCONc1ncnc2nonc12
    12%, -7, -21, 4.0, 1.4%, -10%, 6%
COc1ccc(NC(=O)c2ccc(C(=O)Nc3ccc(OC)cc3OC)cc2)c(OC)c1
    8%, -1, -2, -7.5, ., -1%, 12%[15.4 µM]
COc1c(Cl)cc(C(=O)Nc2cccnc2)cc1Cl
    ., ., -6, ., 0.0%, ., 16%
COc1ccc(-c2cn(-c3cccc(C)c3)c(=O)[nH]2)cc1OC
    -2%, 1, -7, 20, 1.5%, -7%, -41%[inhibitor]
CC(=O)NC(=S)Nc1cccc2c(C)cc(C)nc12
    4%, 2, -6, 0.2, -4.5%, -10%, -35%[inhibitor]
CCCCc1nnc(NC(=O)CN(C)S(=O)(=O)c2ccc(C)cc2)s1
    -1%, 12, 8, ., 1.0%, 14%, -8%
CCCCNCc1cccn1-c1ccccc1
    -5%, 9, -4, 1.4, 0.5%, -24%, ?
COc1ccc(CCNC(=O)CN(c2ccccc2OC)S(C)(=O)=O)cc1
    -3%, -3, 4, 5.9, -1.9%, 11%, -3%
CCOc1ccccc1NC(=O)NCCN1CCCCC1
    8%, -3, -14, 1.8, 0.2%, 16%, -3%[15.4 µM]
COc1cccc(Cn2cccc(NC(=O)NC3CCCCC3)c2=O)c1
    13%, -13, -7, 5.5, 28µM*, 9%, -6%
Cc1ccc(C(=O)Cc2nnc(C)s2)cc1
    12%, 6, -20, 2.6, 0.4%, 1%, -1%[15.4 µM]
CCCCCC(=O)N1CC2(CC(c3cccc(NC(=O)COc4ccc(Cl)cc4)c3)=NO2)C[C@@H]1C(N)=O (stereo partly specified)
    ?, 22, -1, -1.0, -0.6%, 11%, .
CCOC(=O)C1(CC2CCCCO2)CCN(C(=O)Nc2ccc(C)c(C)c2)CC1 (stereo unspecified)
    -17%, -17, -5, 2.0, ., 10%, -8%[15.4 µM]

From PubChem BioAssay
